KCNQ2 enhance: enhances the rat KCNQ2 potassium channel; 0.54% of 310,000 active; CHO-K1 KCNQ2, FluxOR thallium flux fluorescence; hits give high values; O88943; B-score at 10 µM;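 active = fluorescence ratio B-score at least 3 SD of library B-scores, with initial fluorescence B-score within 3 SD, cut at about 5.3 in these data; same plate scores as AID 2156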;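 also: B-score of peak minus minimum over baseline fluorescence ratio after K+ and Tl+ stimulus; positive B-score means potentiation of KCNQ2 with more thallium influx and brighter signal; only the inactives scoring about 0 or higher are listed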
Target sequence (O88943 whole entry, looked up): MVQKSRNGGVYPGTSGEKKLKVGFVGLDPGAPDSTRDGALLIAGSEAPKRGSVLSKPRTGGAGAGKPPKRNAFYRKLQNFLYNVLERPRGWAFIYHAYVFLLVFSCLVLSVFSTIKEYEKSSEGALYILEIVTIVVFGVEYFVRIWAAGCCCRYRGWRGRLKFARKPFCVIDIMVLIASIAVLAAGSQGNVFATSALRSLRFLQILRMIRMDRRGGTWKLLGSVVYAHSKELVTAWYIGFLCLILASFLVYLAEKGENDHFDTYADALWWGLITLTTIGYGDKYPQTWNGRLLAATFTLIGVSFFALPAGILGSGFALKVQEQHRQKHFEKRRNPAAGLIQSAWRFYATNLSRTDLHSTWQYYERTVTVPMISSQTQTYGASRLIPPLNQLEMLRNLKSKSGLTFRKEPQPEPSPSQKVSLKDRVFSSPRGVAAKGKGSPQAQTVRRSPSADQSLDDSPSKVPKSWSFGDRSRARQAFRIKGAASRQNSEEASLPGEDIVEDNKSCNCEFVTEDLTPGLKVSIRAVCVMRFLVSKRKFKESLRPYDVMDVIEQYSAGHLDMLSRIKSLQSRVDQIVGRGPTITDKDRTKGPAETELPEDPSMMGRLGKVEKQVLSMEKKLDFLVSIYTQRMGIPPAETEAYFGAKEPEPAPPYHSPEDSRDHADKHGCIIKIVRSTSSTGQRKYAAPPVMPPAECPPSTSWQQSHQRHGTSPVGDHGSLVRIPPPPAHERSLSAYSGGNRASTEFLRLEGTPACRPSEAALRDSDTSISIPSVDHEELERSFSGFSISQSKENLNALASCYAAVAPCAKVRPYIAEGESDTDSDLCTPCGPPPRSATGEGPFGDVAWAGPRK
KCNQ2 enhance baseline: also measured in KCNQ2 enhance; calls as there; B-score; compound at 10 µM; measured here: initial fluorescence intensity artifact check;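 brightness before thallium and not channel activity; 0 = typical well and far values either way flag optical interference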
* marks the source's active call; other numbers are inactive results.

SMILES | KCNQ2 enhance | KCNQ2 enhance baseline
Cc1ccccc1NS(=O)(=O)c1nnc(NC(=O)C(C)C)s1 | 2.3 | 0.62
COC(=O)C1=C(C)N(c2ccc(C)cc2)/C(=C/c2ccc(O)cc2)C1=O | 0.49 | -0.04
COC(=O)c1[nH]c2cc(OC)c(OC)cc2c1/C=N/Nc1ccccc1 | 1.3 | 0.14
O=C(N/N=C/c1ccc([N+](=O)[O-])o1)c1ccccc1-n1cccc1 | 0.01 | 0.8
CCOc1ccc(S(=O)(=O)Nc2cccc(-c3ccc(N4CCCCCC4)nn3)c2)cc1 | 0.99 | -0.32
Cc1ncoc1C(=O)Nc1nccs1 | 0.62 | -0.23
COc1cc(-c2[nH]ncc2CN2CCc3sccc3C2)cc(OC)c1OC | 2.2 | 0.37
COCC1CCN(Cc2nc(-c3ccc(OC)cc3)no2)CC1 | 0.02 | 0.03
CC(=O)Oc1ccc(-c2csnn2)cc1 | 0.07 | -1.5
O=C(O)CCCn1cc(NC(=O)c2sc3ccccc3c2Cl)cn1 | 0.09 | 0.64
O=c1cc(N2CCN(Cc3ccccc3)CC2)[nH]c(=O)n1-c1ccc(Br)cc1 | 1.2 | 1
CCC(C)n1c(-c2cccc(S(=O)(=O)N(CC)CC)c2)n[nH]c1=S (stereo unspecified) | 1.1 | -0.17
CCOc1cc(C)c(S(=O)(=O)Nc2ccc3cn[nH]c3c2)cc1C | 0.03 | -0.67
CCOC(=O)c1nnn(CC(=O)Nc2cccc(Cl)c2C)c1C(=O)OCC | 0.58 | 0.62
Cc1ccc(S(=O)(=O)NCCCN2CCOCC2)cc1C | 4.6 | 1.1
CCOC(=O)c1[nH]c(C)c(C(=O)NCCCN2CCOCC2)c1C | 0.65 | 0.8
CC(=O)Nc1c(C)nn(-c2ccc(C)c(C)c2)c1C | 0.96 | -2.9
C1=C(CCNc2ncnc3c2cnn3-c2ccccc2)CCCC1 | 1.6 | -1.5
Cc1ccc(C(=O)Nc2ccc(N3CCN(C(=O)c4ccco4)CC3)cc2)cc1 | 0.9 | 0.03
NC(=O)Cn1nc([N+](=O)[O-])nc1Oc1ccccc1F | 0.64 | 0.76
O=S(=O)(NC1CC1)c1ccc(Cl)cc1 | 0.87 | 0.09
CCN(CC)C(=O)Cn1c(=O)n(-c2ccccc2)c(=O)c2sccc21 | 2.2 | -0.62
CCN(CCn1cccn1)C(=O)c1cccc(OC2CCN(S(C)(=O)=O)CC2)c1 | 0.15 | 1.8
Cc1cc(=O)c(C(=O)c2ccccc2)c(C)o1 | 2.5 | 0.77
COc1ccc(-c2nc(C)ncc2N=Nc2ccccc2)cc1 | 0.06 | 0.25
CCN1CCN(C(=O)NC2CCCCC2)CC1 | 0.15 | -1.4
CC(=O)NS(=O)(=O)c1ccc(NC(=O)c2ccc3c(c2)C(=O)N(CCC(C)C)C3=O)cc1 | 2 | -0.21
O=C(NCCC1=CCCCC1)c1c(O)nc2ccccn2c1=O | 0.14 | 0.92
Cc1ccc(-c2cc(NC(=O)CCl)n(-c3ccccc3)n2)cc1 | 0.02 | -0.95
Cc1nc(-c2ccccc2)cc(=O)[nH]1 | 0.55 | -0.37
Cc1cc(NC(=O)CSc2nc3ccsc3c(=O)n2CCCC(=O)NCCc2ccccc2)no1 | 0.83 | 1.5
CN(C(=O)c1cc2c(=O)n3ccccc3nc2s1)C1CCCCC1 | 0.23 | 0.08
CNCc1c(OCc2ccccc2)ccc2ccccc12 | 3.4 | 1.7
O=C(Oc1ccc(-c2nnco2)cc1)N(c1ccccc1)c1ccccc1 | 0.02 | -0.86
CCN1CCN(c2nc(Nc3cccc(C)c3)nc(N)c2[N+](=O)[O-])CC1 | 1.4 | 0.76
COCCSc1nnc(NC(=O)C(C)(C)C)s1 | 0.28 | -0.37
O=C(Cc1c(F)cccc1Cl)NNC(=O)Nc1ccc2c(c1)OCO2 | 0.9 | 0.68
COc1cc(NC(=S)NC(=O)c2ccc(C)cc2C)ccc1NC(=O)c1cccs1 | 0.02 | -1.5
CCN1CCN(C(c2cccs2)C(C)NC(=O)c2cccnc2)CC1 (stereo unspecified) | 0.01 | -0.05
Cn1c2ccccc2c2nnc(SCC(=O)NC3CC3)nc21 | 0.09 | 0.92
Nc1c(Cl)ncnc1N/N=C/c1ccc(O)cc1 | 1.8 | -0.28
CCOC(=O)C1(C)NC(c2ccc(OC)c(OC)c2)C2C(=O)N(CC)C(=O)C21 (stereo unspecified) | 1.9 | -0.08
Cc1cc2nc3n(c2cc1C)CC1CC(C(=O)NCc2ccccc2)N(C)C31 (stereo unspecified) | 0.16 | -1.6
CCS(=O)(=O)CCSC1OC(COC(C)=O)C(OC(C)=O)C(OC(C)=O)C1OC(C)=O (stereo unspecified) | 0.5 | 0.54
Cn1c(=O)c2c(nc(CN3CCOCC3)n2CCc2ccccc2)n(C)c1=O | 0.9 | 0.08
CC(C)CC(OC(=O)c1nsc(Cl)c1Cl)C(=O)NC1CCCC1 (stereo unspecified) | 0.77 | 0.32
CC(NC(=O)CCCn1cc([N+](=O)[O-])cn1)c1ccccc1 (stereo unspecified) | 0.65 | -0.54
COc1ccc(CNc2ccc(-c3ccccc3OC)nn2)cc1 | 0.15 | -0.89
CCc1cc(=O)oc2c(C)c(OC(C)C(=O)NCCCN3CCOCC3)ccc12 (stereo unspecified) | 0.01 | -1.9
COC(=O)CSc1nc(-c2ccccc2)c2c(c1C#N)CCCC2 | 2.1 | -0.16
CCN(C(=O)COC(=O)c1ccc(OC)c(S(=O)(=O)N(C)Cc2ccccc2)c1)C1CCS(=O)(=O)C1 (stereo unspecified) | 0.24 | -1.7
O=C(Nc1nonc1-c1ccc(Cl)cc1)c1ccccc1 | 1.1 | 0.22
COC(=O)c1ccc(COc2ccccc2[N+](=O)[O-])o1 | 1.2 | 1.2
COc1ccc2[nH]c(C)c(C(=O)CN3CC(C)OC(C)C3)c2c1 (stereo unspecified) | 1.3 | -0.26
COc1ccccc1-c1cc(C(=O)N/N=C\c2cnn(C)c2C)c2ccccc2n1 | 0.73 | 0.42
CCN(CC)c1ncnc2c1cnn2Cc1ccc(C)cc1 | 2.8 | -2.6
O=C1CC(c2cccc(Br)c2)c2cc3c(cc2N1)CCC3 (stereo unspecified) | 0.8 | 0.55
O=Cc1c(Cl)nc2ccccn12 | 0.93 | -0.26
CN(C)CCCNS(=O)(=O)c1ccc(-n2nnc3ccccc32)c([N+](=O)[O-])c1 | 0.04 | -0.37
O=C(O)c1cc(N/N=C/c2cccc3ccccc23)ccc1Cl | 1.8 | -0.69
(next part)
SMILES | KCNQ2 enhance | KCNQ2 enhance baseline
CCCN1CCN(CCCNC(=S)Nc2ccc(OC)cc2)CC1 | 0.31 | -2.4
CCCCOC(C)n1cc(F)c(=O)[nH]c1=O (stereo unspecified) | 0.04 | -0.31
CC(=O)Nc1c(O)c2cccc3c2n(c1=O)CCC3 | 1.2 | 0.67
COc1ccc(C(=O)NCC(=O)N/N=C/c2cccnc2)cc1OC | 0.22 | -0.1
COc1ccc(N2CCN(C(CNC(=O)C(=O)NCC(OC)OC)c3ccco3)CC2)cc1 (stereo unspecified) | 0.16 | -0.97
Cn1nc(C(F)(F)F)c(CNC(=O)C(C)(C)CCl)c1N1CCOCC1 | 0.2 | -1.3
Cc1cccc(N2CC(c3nc4ccccc4n3C)CC2=O)c1C (stereo unspecified) | 0.61 | 1.8
CC(=O)Nc1ccc(S(=O)(=O)n2cnc(C)c2)cc1 | 0.06 | -0.7
Cc1cc(C)cc(N(CC(=O)O)S(=O)(=O)c2c(C)noc2C)c1 | 0.02 | 0.93
O=C(Nc1ccccc1)Nc1cccc2nsnc12 | 2 | 1.5
O=C1C(=O)N(Cc2cccs2)c2ccccc21 | 0.62 | -0.2
O=C(NCc1nc2ccccc2[nH]1)c1cc2ccccc2oc1=O | 0.34 | -0.41
Cc1cc(C)nc(SCc2nnc(SCC(N)=O)o2)n1 | 1.3 | -1.8
C=CCn1c(SCCOc2ccc(OC)cc2)nnc1C(C)NC(=O)Cc1ccc(OC)cc1 (stereo unspecified) | 0.31 | -1.5
CCOC(=O)C1C(c2ccc(O)c(OC)c2)NC(=O)NC1(O)C(F)(F)F (stereo unspecified) | 0.29 | -0.59
Cc1c(SCCO)c(=O)[nH]c2cc3c(cc12)OCO3 | 0.79 | 4.2
CC(C)OC(=O)Nc1ccc2c(c1)N(C(=O)N1CCN(C)CC1)c1ccccc1CC2 | 2.6 | -0.24
O=C(O)CSc1nnc(-c2ccc(Cl)cc2)n1-c1ccccc1 | 1.8 | -0.66
CCC/C(=N/NC(=O)c1nnn(-c2nonc2N)c1CN1CCCCC1)c1ccccc1 | 0.29 | -0.82
Nc1cc(OCC(F)(F)F)cc([N+](=O)[O-])c1 | 1.7 | -0.52
COC(=O)c1c(C(C)=O)c(C)n(C)c1C | 1.4 | -0.87
COc1ccc(NC(=O)Cn2c(=O)n(CC3CCCO3)c(=O)c3cc(OC)c(OC)cc32)cc1OC (stereo unspecified) | 0.39 | 0.44
O=C(NCCc1nc(-c2ccccc2)no1)c1ccco1 | 1.4 | 0.25
CCOC(=O)CSc1nc2c(c(=O)n(Cc3ccccc3Cl)c(=O)n2C)n1C | 0.03 | -0.21
Cc1[nH]n(-c2ccccc2)c(=O)c1/C=N/N1CCOCC1 | 0.93 | -0.27
O=C(O)c1cccc(Nc2nc(-c3cccnc3)nc3ccccc23)c1 | 0.32 | -0.13
Cc1ccc(S(=O)(=O)N(CC(=O)NCc2ccccc2)C(=O)N2CCN(C)CC2)cc1 | 1.4 | 1
O=C(O)c1ccccc1NS(=O)(=O)c1ccc(NNC(=S)Nc2ccc(OC(F)F)cc2)c([N+](=O)[O-])c1 | 0.95 | -0.23
Cc1ccc(-c2nc(CS(=O)CC(=O)NCCCN3CC(C)CC(C)C3)c(C)o2)cc1 (stereo unspecified) | 2.9 | -0.12
COc1ccc(NC(=O)/C=C/c2cccc(C(F)(F)F)c2)cn1 | 2.2 | -0.47
COc1ccc(NC(=O)CN2C(=O)CC(C)S(=O)(=O)c3ccccc32)cc1 (stereo unspecified) | 0.22 | 0.36
CC(=O)CC(=O)Nc1ccc(Nc2ccccc2)cc1 | 0.09 | 0.43
COc1ccc(/C=N/N2C(=O)CSC2=S)cc1 | 0.02 | -1.9
COc1ccc(OC)c(-n2nnnc2SCC(=O)Nc2ccc3c(c2)OCCO3)c1 | 1.1 | 0.38
CN1C(=O)CCC1(O)c1ccccc1 (stereo unspecified) | 0.44 | -0.73
CC(C)c1cc(NC(=O)C(C)(C)C)cc(C(C)C)c1O | 0.34 | -0.47
CCOC(=O)Cc1csc(NS(=O)(=O)Cc2ccccc2)n1 | 0.73 | 0.69
CC(=O)c1oc2ccccc2c1NC(=O)CCCN1C(=O)c2ccccc2C1=O | 0.73 | -0.27
CCOC(=O)c1sc2nc(C)nc(SCC(=O)N(CC)C3CCS(=O)(=O)C3)c2c1C (stereo unspecified) | 0.32 | -0.66
O=C1C2C3C=CC(C3)C2C(=O)N1CCC(=O)N1CCc2ccccc21 (stereo unspecified) | 0.46 | 1.2
O=C(NCc1ccc(F)cc1)Nc1ccc(Cl)cc1 | 1.4 | -0.07
COc1cc(/C=C(\C#N)C(=O)NCc2ccccc2)ccc1OCc1ccc(C(=O)O)cc1 | 0.5 | -0.47
COc1cccc(CNC(=O)C(CCSC)NS(=O)(=O)c2ccc3c(c2)oc(=O)n3C)c1 (stereo unspecified) | 0.07 | 1.4
O=C(NC12CC3CC(CC(C3)C1)C2)N1CCN(c2nc(-c3ccccc3)cs2)CC1 | 0.1 | -1.2
CN1C(=O)C2(c3ccccc31)c1c(oc3ccccc3c1=O)C(=O)N2CCCO (stereo unspecified) | 0.89 | -1.3
CCc1cccc(NC(=O)CCc2c(C)nn(-c3ccc(N4CCOCC4)nn3)c2C)c1 | 0.3 | -2.2
CCOC(=O)c1cn(CC(=O)Nc2ccc(CC)cc2)nn1 | 1.6 | -1.4
CC(C)(C)OC(=O)N1CCC(C(=O)N2CCOCC2)CC1 | 0.1 | 0.94
Cc1cc(C)nc(/N=C(\N)Nc2ccc(OCCC(C)C)cc2)n1 | 2.6 | -0.3
COc1cccc(-c2ccc(SCC(=O)N3CCOCC3)nn2)c1 | 0.66 | -1.1
CC(C)NC(=O)C1CCN(Cc2cccc(Oc3ccccc3)c2)CC1 | 1 | -1.8
O=C(C1CCCN1S(=O)(=O)c1cccc2nsnc12)N1CCCCCC1 (stereo unspecified) | 1.3 | -0.14
COc1cc(/C=N/NC(N)=S)ccc1OC(=O)c1ccc(C)cc1 | 0.47 | -0.26

Screening data from PubChem.

Only part of the results is shown. The share of hits here may be higher or lower than overall.
